Source: PubChem BioAssay (National Center for Advancing Translational Sciences (NCATS))
StopGo FLuc: FMDV 2A StopGo reporter, firefly signal | HEK cells with a luciferase reporter of 2A StopGo recoding | Potency, µM (highest dose often 57.5 µM), inactives show at the top dose signal change, negative = less light | 120,000 compounds, 0.23% hits | AID 1745856; active = well fitted falling curve with a large enough effect; inconclusive = small, poorly fitted or top-dose-only effect; inactive = no such curve, though single readings can be large or run the other way; also: nearly all actives have a fitted effect of over 60% in size; overnight with compound
StopGo RLuc: lowers the Renilla signal of an FMDV 2A StopGo reporter; HEK cells with a luciferase reporter of 2A StopGo recoding; Potency, µM (highest dose often 57.5 µM), without a hit: top-dose signal change, negative = less light; 120,000 compounds, 0.32% hits; active means well fitted falling curve with a large enough effect; inconclusive means small, poorly fitted or top-dose-only effect; inactive means no such curve, though single readings can be large or run the other way; also: nearly all actives have a fitted effect of over 55% in size; overnight with compound
The depositor's hits bear a star; u = inconclusive; & = joins results of further samples; [ ] = dose if it differs, or a comment. % is scaled to controls: 0 for no effect and ±100 for the full control effect; potency is read from the fitted curve at half-maximal effect. These rows are one share of the data. The share of hits here may be higher or lower than overall.

The first three compounds (preview)
SMILES | StopGo FLuc | StopGo RLuc
COc1ccccc1C1(c2ccc(O)cc2)CCCC1 | 30%[activator] | 20%
O=C(Nc1ccc(F)cc1F)c1nn(Cc2ccccc2)c(=O)c2ccccc12 | 6% | 4%
COc1ccccc1N(CCC#N)C(=O)CN(C)CC(=O)Nc1ccccc1Cl | 1% | 1%

The list itself (from the top)
SMILES | StopGo FLuc | StopGo RLuc
COc1ccccc1C1(c2ccc(O)cc2)CCCC1 | 30%[activator] | 20%
O=C(Nc1ccc(F)cc1F)c1nn(Cc2ccccc2)c(=O)c2ccccc12 | 6% | 4%
COc1ccccc1N(CCC#N)C(=O)CN(C)CC(=O)Nc1ccccc1Cl | 1% | 1%
CC(/C=C/c1ccccc1)=N\OC(=O)c1ccc(Cl)cc1Cl | 37%[activator] | 9%
CC(Oc1ccc(F)cc1Cl)C(=O)NN (stereo not given) | 3% | 3%
Cc1ccc(C2N3CC4(C)CN2CC(C)(C3)C4=O)cc1 (stereo not given) | 0% | 15%
CCC(=O)N1CCN(c2oc(/C=C/c3ccc(OC)cc3)nc2C#N)CC1 | 13% | 12%
COC(=O)c1c(NC(=O)c2nc3nc(C)cc(C(F)F)n3n2)sc2c1CCCC2 | -10% | 1%
Oc1ccc(N=Cc2cccc3ccccc23)cc1 | 56%[activator] | 5%
CCC(C)(C)NC(=O)c1ccccc1OCc1ccc(Cl)cc1 | 50%[activator] | -6%
Cc1ccc2c(Cn3nnc(-c4ccc(F)cc4)n3)cc(=O)oc2c1C | -7% | -13%
CCOC(=O)c1ccccc1NC(=O)c1cnn(-c2ccc(OC)cc2)c1C1CCN(C(=O)OC(C)(C)C)CC1 | -23% | -14%
Cc1nc2cc(NC(=O)C3CC(=O)N(C4CCCC4)C3)ccc2o1 (stereo not given) | 143%[activator] | 33%
O=C(COc1cccc(-n2cnnn2)c1)NC1CCCC1 | 9% | 0%
COc1cccc(NC(=O)CSc2nc3c(=O)[nH]cnc3n2-c2ccc(C)cc2)c1 | 55%[activator] | 61%[activator]
Cc1cc(NC(=O)COC(=O)C2(c3ccccc3)CC2)no1 | 22% | 8%
CC(O)CNS(=O)(=O)c1ccc(-c2ccc(S(=O)(=O)NCC(C)O)cc2)cc1 (stereo not given) | 10% | 16%
CC(C)=CCOc1ccc(/C=C/C(=O)c2ccc(OCC=C(C)C)cc2OCC(=O)O)cc1 | -9% | -8%
CCCNC(=O)c1ccc2nc(-c3ccc(C)cc3)cc(OC)c2c1 | 0% | 0%
Cc1ccc(NC(=O)CN(C)S(=O)(=O)c2cccc3cccnc23)c(C)c1 | -1% | 61%[activator]
CCN(C(=O)c1sc2cc(OC)ccc2c1Cl)c1ccccc1 | 23% | 37%[activator]
CCOc1ccc(OCC)c(Nc2nc3ccccc3c3nnc(C)n23)c1 | -14% | -11%
Cc1cc(C(=O)N2CCN(S(=O)(=O)c3ccc(Cl)cc3)CC2)on1 | 9% | -2%
CS(=O)(=O)Cc1ccc(C(=O)Nc2cc(F)ccc2F)cc1 | 112%[activator] | -2%
CCNC(=O)NC(=O)C(C)Sc1ccc(F)cc1 (stereo not given) | -8% | 9%

2 records drawn at random from the list so far, as already listed:
SMILES | StopGo FLuc | StopGo RLuc
CCOc1ccc(OCC)c(Nc2nc3ccccc3c3nnc(C)n23)c1 | -14% | -11%
COc1ccccc1C1(c2ccc(O)cc2)CCCC1 | 30%[activator] | 20%

New compounds follow:
SMILES | StopGo FLuc | StopGo RLuc
CC(Oc1ccccc1)C(=O)Nc1nc2ccc(S(N)(=O)=O)cc2s1 (stereo not given) | 25% | -1%
Cc1ccccc1C(C)NC(=O)c1nn(C)c(=O)c2ccccc12 (stereo not given) | -4% | 12%
O=C(O)c1cc(C2CC2)nc2c1c(=O)[nH]c(=O)n2C1CC1 | 0% | -2%
Cc1sc(NC2CCCC2)nc1-c1ccc(NS(C)(=O)=O)cc1 | 0% | 5%
CCc1nnc(SCC(=O)Nc2cc(OC)ccc2OC)nc1CC | -22% | -15%
Cc1nc(SCC(=O)Nc2cccc(S(=O)(=O)N3CCCC3)c2)n(C2CCCCC2)c1C | u | 93%[activator]
Cc1cccc(-c2cc(NC(=O)COc3ccccc3F)n(-c3ccccc3)n2)c1 | 60%[activator] | -2%
CCNC(=O)NC(=O)COC(=O)c1cn(C)c2ccccc12 | 11% | 6%
Fc1c(F)c(F)c(N=Cc2ccsc2)c(F)c1F | 3% | -10%
CCN(CC)C(=O)c1sc2c(c1C)c(=O)n(-c1ccc(C)c(C)c1)c(=O)n2Cc1cc(=O)n2ccccc2n1 | u | 4%
O=C1NC2(C(=O)Nc3cccc(Cl)c3)CCC(=O)N2c2ccccc21 (stereo not given) | 0% | 88%[activator]
CC(NC(=O)NCCNc1cnccn1)c1ccc(C#N)cc1 (stereo not given) | -8% | -7%
CC(=O)N1CCc2c(sc3c2c(=O)n(-c2ccc(C)cc2)c(=O)n3Cc2ccccc2C)C1 | 5% | 11%
Cc1ccccc1NC(CNS(=O)(=O)c1ccccc1)c1ccccc1 (stereo not given) | u | 64%[activator]
CCn1cc(C(=O)NCCCC(N)=O)c2ccccc21 | -8% | -12%
COC(=O)C1CN(Cc2ccc(OC)cc2)CCS(=O)(=O)N1Cc1ccc(OC)cc1 (stereo not given) | 3% | 3%
Cc1coc2c(C)c3oc(=O)c(CCC(=O)NCCc4ccccc4)c(C)c3cc12 | -15% | 7%
O=C(O)CNS(=O)(=O)c1ccc(C(=O)/C=C/c2ccc(Cl)cc2)cc1 | -13% | -4%
CC(C)CNc1nc(C(=O)Nc2ccc3cc[nH]c3c2)cs1 | 0% | -9%
CC(NC(=O)CCCc1c[nH]c2ccccc12)c1cccc(F)c1 (stereo not given) | -1% | 5%
CCOc1ccc(Cn2c(CNS(=O)(=O)c3ccc([N+](=O)[O-])cc3)nc3cccnc32)cc1 | -11% | 47%[activator]
O=C(NCCn1cc(SCc2ccc(F)cc2)c2ccccc21)c1cccs1 | u | u
O=C(COc1cc(Cl)ccc1Cl)N1CCNC1=O | 7% | 2%
COCCn1c(=NC(=O)c2ccc3c(c2)OCCO3)sc2cc(C(=O)OC)ccc21 | -32% | 5%
COC(=O)C1CCC/C(=C\c2ccc(Cl)cc2)C1=O (stereo not given) | 0% | -2%

Going on with the list.
SMILES | StopGo FLuc | StopGo RLuc
Cc1cc(=O)oc2c(C)c(OC(C)C(=O)NC3CC(C)(C)NC(C)(C)C3)ccc12 (stereo not given) | -18% | -16%
COc1ccc(CN(C)CC(O)COc2ccccc2C(C)C)cc1OC (stereo not given) | 5% | -10%
CCN1CCN(CCCNC(=O)c2cc3c(s2)-c2ccccc2OC3)CC1 | 139%[activator] | 29%
O=C1CCCC2=C1C(c1ccc(Cl)cc1)CC(=O)N2c1ccccc1F (stereo not given) | -10% | 3%
CCC(C)(C)C1CCC(NC(=O)CNC(=O)CNC(C)=O)CC1 (stereo not given) | -8% | 8%
COc1ccc2oc(=O)c(C(=O)NCCc3c(C)[nH]c4ccc(OC)cc34)cc2c1 | -8% | -1%
CC(C)Oc1ccc(C(=O)N2CCC(c3nc4ccccc4s3)CC2)cc1 | -1% | 7%
Cc1ccc(Oc2ccccc2NC(=O)c2ccncc2)cc1 | 16% | 7%
CC(C)(C)c1[nH]c2ccc(F)cc2c1C=O | 5% | -22%
Cc1ccc(CN2C(=O)C3(c4ccccc42)N(c2ccc(C)c(C)c2)C(=O)CS3(=O)=O)cc1 (stereo not given) | -3% | 5%
CC(=O)N1CCN(c2oc(/C=C/c3ccc(Cl)cc3)nc2C#N)CC1 | 5% | 3%
Cc1ccc(Cc2nc3ccccc3nc2SCC(=O)N2CCCc3ccccc32)cc1 | 0% | -3%
COC(=O)c1cc2occc2n1CC(=O)Nc1ccc(N(C)C)cc1 | 27% | 7%
Cc1cccc(-n2nnc(C(=O)NC3CCCCC3)c2N)c1 | 110%[activator] | -2%
N#CCCNCc1cccnc1 | 4% | 0%
Cc1sc(NC(=O)COc2ccccc2)c(C(N)=O)c1C | 173%[activator] | -1%
Cc1ccc(-n2c(=O)c3c4c(sc3n(CC(=O)Nc3cccc(Cl)c3)c2=O)CCCCC4)cc1C | -11% | -9%
Cc1nc2ccccc2c(C)c1CC(=O)NCCc1ccccc1F | -3% | -22%
O=C(Nc1ccc(C(=O)N2CCOCC2)cc1)c1cc(-c2ccc(Cl)s2)nc2ccccc12 | 20% | 12%
Cc1cc(C)cc(Nc2nc(-c3cccnc3)nc3ccccc23)c1 | -3% | -7%
CC(C)(CNC(=O)C1CCCC1)c1ccccc1 | 0% | 5%
Cc1cc(Nc2nc3ccccc3c3nnc(C)n23)ccc1Br | -17% | -16%
CC1CCN(c2nn3c(=O)c(C(=O)NCCCOC(C)C)cnc3s2)CC1 | -1% | 8%
COc1ccccc1/C=C/c1nc(C#N)c(N2CCN(Cc3ccccc3)CC2)o1 | -6% | -18%
CCCCCOc1ccc(C(=O)C2CC2)cc1 | 12% | 11%

Complete entries as entered above. Values in the order: StopGo FLuc | StopGo RLuc
Cc1sc(NC(=O)COc2ccccc2)c(C(N)=O)c1C is listed with 173%[activator] | -1%
CC(C)(C)c1[nH]c2ccc(F)cc2c1C=O is listed with 5% | -22%

Further compounds:
SMILES | StopGo FLuc | StopGo RLuc
CCOC(=O)c1ccc(NC(=O)CS(=O)(=O)Cc2nc(-c3ccc(C)cc3)oc2C)cc1 | 9%&2% | -6%&-14%
COc1ccccc1C(=O)NCCn1cc(SCc2ccccc2Cl)c2ccccc21 | 4% | -1%
Cc1ccc(N(Cc2cccs2)C(=O)c2ccccc2)cc1 | 21%&-14% | 53%&7%[activator]
CCCCCCCCCCS(=O)(=O)Nc1cc(Br)c2cccnc2c1 | 2% | 10%
COc1cc(-c2nnc(SCC(=O)NC(C)c3ccc4c(c3)CCCC4)o2)cc(OC)c1OC (stereo not given) | -11% | -2%
CCN(C(C)=O)C1CCN(C(C)c2ccccc2)C1 (stereo not given) | 16% | 6%
CCC(C(=O)O)c1ccc(N2Cc3ccccc3C2=O)cc1 (stereo not given) | 64%[activator][11.5 µM] | 6%
COCCCNC(=O)c1ccc2nc(CCc3ccccc3)oc2c1 | 68%[activator] | 4%
Cc1ccc(N(CC(=O)NCc2ccc(OC(C)C)cc2)S(=O)(=O)N(C)C)cc1 | -16% | 5%
COc1cc2c(cc1OC)C(COc1ccc3c(C)cc(=O)oc3c1)N(C(=O)C(C)C)CC2 (stereo not given) | -10% | 2%
CCOCc1ccccc1CNC(=O)c1cccs1 | 0% | 5%
Cc1cccc(C)c1OCC(=O)NCc1ccccc1 | 0% | 64%[activator]
CN(Cc1ccccc1)S(=O)(=O)c1nnc(NC(=O)c2ccccc2Cl)s1 | -12% | 48%[activator]
COc1ccc(C(=O)Oc2ccccc2C)cc1Br | 1% | -3%
Cc1nc(C)c(CCNS(=O)(=O)c2ccc(F)cc2)s1 | 13% | 205%[activator]
COc1cc(C2=NOC(C(=O)N3CCOCC3)C2)cc(OC)c1OC (stereo not given) | 6% | -4%
O/N=C/c1cccc(Cl)c1 | 0% | 8%
COC(=O)Cc1c(C)c2ccc3c(c2oc1=O)CN(Cc1ccc(C)cc1)CO3 | -9% | 13%
O=S(=O)(NC1=NCN(Cc2cccnc2)CN1)c1ccc(Cl)cc1 | -5% | 3%
Fc1ccc(Br)cc1-c1nnc2sc(Cn3cccn3)nn12 | 0% | 11%
CCNC(=O)c1ccccc1OCc1ccc(F)cc1 | 5% | -4%

Copied from the list.
StopGo FLuc, `Cc1cccc(C)c1OCC(=O)NCc1ccccc1` : 0%
StopGo FLuc, `Cc1nc(C)c(CCNS(=O)(=O)c2ccc(F)cc2)s1` : 13%
StopGo RLuc, `CCOC(=O)c1ccc(NC(=O)CS(=O)(=O)Cc2nc(-c3ccc(C)cc3)oc2C)cc1` : -6%&-14%
StopGo RLuc, `O=S(=O)(NC1=NCN(Cc2cccnc2)CN1)c1ccc(Cl)cc1` : 3%
StopGo FLuc, `COc1ccc(C(=O)Oc2ccccc2C)cc1Br` : 1%
StopGo RLuc, `CCOCc1ccccc1CNC(=O)c1cccs1` : 5%
StopGo RLuc, `COc1cc2c(cc1OC)C(COc1ccc3c(C)cc(=O)oc3c1)N(C(=O)C(C)C)CC2` (stereo not given) : 2%
